# From PubChem BioAssay
# AmpC nodet inh: AmpC beta-lactamase inhibition, detergent-free assay. 1.8% of 71,000 active. AmpC nitrocefin hydrolysis, absorbance 480 nm, no detergent; potencies from a single point are estimates. Potency, µM (doses to about 28.7 µM), without a hit: top-dose activity change, negative = inhibition; active = falling curve, for most hits resting on a single point; inconclusive = weak or doubtful change; inactive = flat or rising curve; further: % of control where 0% means no effect; about half of the hits show no inhibition at the top dose; a quarter of the inactives give rising signals
# Target sequence (P00811 whole entry, looked up): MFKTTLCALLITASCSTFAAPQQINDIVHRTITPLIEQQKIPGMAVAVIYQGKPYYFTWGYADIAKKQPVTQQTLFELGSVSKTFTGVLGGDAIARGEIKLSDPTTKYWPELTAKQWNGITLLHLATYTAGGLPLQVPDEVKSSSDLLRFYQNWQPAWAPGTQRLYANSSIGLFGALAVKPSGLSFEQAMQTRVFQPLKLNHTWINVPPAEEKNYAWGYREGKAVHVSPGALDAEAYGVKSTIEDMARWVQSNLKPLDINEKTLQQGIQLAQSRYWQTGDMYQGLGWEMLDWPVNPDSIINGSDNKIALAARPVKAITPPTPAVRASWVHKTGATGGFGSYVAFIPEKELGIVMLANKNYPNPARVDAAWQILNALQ
#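 AmpC in 20 mM phosphate buffer pH 7.0 was preincubated 15 min at room temperature with compounds. Nitrocefin (800 uM stock) was then added and hydrolysis followed at 480 nm every 20 s for 4 min.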
# * marks the source's active call; other numbers are inactive results; u = inconclusive; [ ] = dose if it differs, or a comment. Potency means the concentration at half of the fitted maximal effect. Not all compounds are listed, so the mix of outcomes need not match the whole.
# A first look:
Molecule,AmpC nodet inh
O=C(O)c1ccccc1-c1nc2ccccc2c(=O)[nH]1,-13%
CCc1cccc(NC(=O)Cn2ncn3c(cc4ccccc43)c2=O)c1,-10%
CCOC(=O)c1[nH]c(=O)[nH]c1CSc1ccccn1,-6%
O=S(=O)(Nc1cccnc1)c1ccc2c(c1)OCCO2,-3%
Cn1nnnc1SCCNC/C=C/c1ccccc1,-10%
Cc1ccc(S(=O)(=O)n2nc(-c3cccnc3)nc2N)cc1,3%
CC1CN(C(=O)C2CCCN2S(=O)(=O)c2ccc(Cl)cc2)CC(C)O1 (centres undefined),0%
COc1ccc(-c2nnc(SCC(=O)c3cccs3)o2)cc1,-8%
CC(C)(O)C#Cc1ccc(C(=O)N2CCC(C(N)=O)(N3CCCCC3)CC2)cc1,-10%
CC(C)(CO)NS(=O)(=O)c1ccc2c(c1)oc(=O)c1cc(S(=O)(=O)NC(C)(C)CO)ccc12,20%
COc1ccc(C2C(C(C)=O)=C(C)N=c3s/c(=C\c4ccco4)c(=O)n32)c(OC)c1 (centres undefined),67%
Cc1ccc(C)c(-n2c(CNc3ccc(F)cc3)nnc2SCC(N)=O)c1,101%
O=C(CCNS(=O)(=O)c1cccc2nsnc12)N1CCN(c2ccccn2)CC1,16%
O=C(Cn1nc(Cc2ccncc2)c2ccccc2c1=O)N1CCN(C(=O)c2ccco2)CC1,26%
Cn1cccc1Cc1nnc(SCC(=O)NC2CCCCC2)n1CCc1ccccc1,104%
Fc1ccccc1N1CCN(C(c2ccccn2)c2nnnn2C2CCCCC2)CC1 (centres undefined),80%

# The whole of this part, repeating the preview:
Molecule,AmpC nodet inh
O=C(O)c1ccccc1-c1nc2ccccc2c(=O)[nH]1,-13%
CCc1cccc(NC(=O)Cn2ncn3c(cc4ccccc43)c2=O)c1,-10%
CCOC(=O)c1[nH]c(=O)[nH]c1CSc1ccccn1,-6%
O=S(=O)(Nc1cccnc1)c1ccc2c(c1)OCCO2,-3%
Cn1nnnc1SCCNC/C=C/c1ccccc1,-10%
Cc1ccc(S(=O)(=O)n2nc(-c3cccnc3)nc2N)cc1,3%
CC1CN(C(=O)C2CCCN2S(=O)(=O)c2ccc(Cl)cc2)CC(C)O1 (centres undefined),0%
COc1ccc(-c2nnc(SCC(=O)c3cccs3)o2)cc1,-8%
CC(C)(O)C#Cc1ccc(C(=O)N2CCC(C(N)=O)(N3CCCCC3)CC2)cc1,-10%
CC(C)(CO)NS(=O)(=O)c1ccc2c(c1)oc(=O)c1cc(S(=O)(=O)NC(C)(C)CO)ccc12,20%
COc1ccc(C2C(C(C)=O)=C(C)N=c3s/c(=C\c4ccco4)c(=O)n32)c(OC)c1 (centres undefined),67%
Cc1ccc(C)c(-n2c(CNc3ccc(F)cc3)nnc2SCC(N)=O)c1,101%
O=C(CCNS(=O)(=O)c1cccc2nsnc12)N1CCN(c2ccccn2)CC1,16%
O=C(Cn1nc(Cc2ccncc2)c2ccccc2c1=O)N1CCN(C(=O)c2ccco2)CC1,26%
Cn1cccc1Cc1nnc(SCC(=O)NC2CCCCC2)n1CCc1ccccc1,104%

# In another format: entries from further up.
> O=C(Cn1nc(Cc2ccncc2)c2ccccc2c1=O)N1CCN(C(=O)c2ccco2)CC1
  AmpC nodet inh: 26%
> Cn1cccc1Cc1nnc(SCC(=O)NC2CCCCC2)n1CCc1ccccc1
  AmpC nodet inh: 104%

# The list continues.
Molecule,AmpC nodet inh
Fc1ccccc1N1CCN(C(c2ccccn2)c2nnnn2C2CCCCC2)CC1 (centres undefined),80%
Nc1ccc2oc(CCc3ccccc3)nc2c1,15%
CN(C(=O)c1ccccc1Cl)C1CCCCC1,7%
CCCCCCC1C(C#N)=C(N)OC2=C1C(=O)CC(C)(C)C2 (centres undefined),-4%
Cc1ccccc1Nc1nc(N)nc(COC(=O)CCS(=O)(=O)c2ccccc2)n1,3%
O=C(NCc1ccco1)C1CCCN(S(=O)(=O)c2cnc[nH]2)C1 (centres undefined),4µM*[single pt active]
O=S(=O)(Cc1ccc(Cl)cc1)N1CCN(Cc2ccccc2)CC1,-6%
O=C(Nc1ccccc1)c1cccc(-c2nnc(-c3ccccc3)o2)c1,-1%
COc1ccc(CCNC(=O)c2ccc3c(=O)n(Cc4ccco4)c(=S)[nH]c3c2)cc1OC,4%
O=C1c2ccccc2C(=O)C1c1ccncc1,-12%
CCCn1c(=O)[nH]c(=O)c2c1nc(-c1ccc3c(c1)OCCO3)n2CCN1CCOCC1,22%
Cc1cc(C(=O)N2CCc3ccccc32)c2ccccc2n1,45%
COc1ccc(N(C(=O)c2ccccc2OC)C2C=CS(=O)(=O)C2)c(OC)c1 (centres undefined),15%
O=C(CCSc1nnc2ccccn12)Nc1ccc(F)cc1,-6%
Oc1ccc(Nc2nc(NCC3CCCO3)c3ccccc3n2)cc1 (centres undefined),u
Cn1c(=O)n(C)c2cc(CN3C(=O)OC(C)(C)C3(C)O)ccc21 (centres undefined),12%
COc1cccc(OCCCCSc2ncccn2)c1,29%
CCOC(=O)CSc1nc(-c2ccc(OC)cc2)ns1,4%
COCc1nnc(NC(=O)CCc2ccccc2)s1,-9%
O=C(O)[C@H](Cc1ccccc1)N1C(=O)c2ccccc2C1=O,-5%[5.75 µM]
O=C(Nc1ccccc1N1CCCCC1)c1cccs1,-9%
COc1cccc(C2CC(c3ccccc3)Nc3nc(N)nn32)c1 (centres undefined),4µM*[single pt active]
Nc1ccccc1SCc1cn2cccnc2n1,1%
CN(C)Cc1nc2ccccc2c(=O)n1Cc1nc(C(C)(C)C)cs1,39%
CCC1(C)C2(C#N)C(N)=NC(OC)(OC)C12C#N (centres undefined),-1%
O=C(Nc1ccc2nn(-c3ccccc3)nc2c1)c1ccc(Br)o1,u
Cn1c(C(=O)OC(C(=O)NC2CCCC2)c2ccncc2)cc2sccc21 (centres undefined),48%
COc1ccccc1-n1nc(C(=O)Nc2ccc3c(c2)OCO3)c2ccccc2c1=O,81%
CCS(=O)(=O)N1Cc2ccccc2CC1C(=O)Nc1nc2ccccc2[nH]1 (centres undefined),2%
Cc1cc2c(=O)n(C)c(SCC(=O)c3cc4ccccc4o3)nc2s1,50%
CN1CCN(c2ccccc2NC(=O)Cc2cn(C)c3ccccc23)CC1,28%
O=C(NCCCn1ccnc1)c1noc2c1CCCC2,-10%
COc1cc(CN2C(=O)NC(=O)C3(Cc4cc(C)ccc4N(C)C3)C2=O)cc(OC)c1 (centres undefined),29%
O=C(COC(=O)Cc1cn2ccsc2n1)NCc1ccc2c(c1)OCO2,-5%
O=C(NCCCN1CCOCC1)C(C(=O)c1ccccc1)n1ccccc1=O (centres undefined),1%
Cn1cccc1C(=O)NC(=O)CSc1nc2ccccc2s1,-3%
CCC(C)(C)n1nnnc1C(c1ccc(O)c(OC)c1)N1CCN(c2nc3ccccc3s2)CC1 (centres undefined),85%
Cc1ccc(OCc2nc(-c3ccccn3)no2)c(Br)c1,14%
Cc1c(-c2nc(N)nc(Nc3ccc(F)cc3)n2)oc2ccccc12,50%
O=C(NCCCN1CCOCC1)C1CC(=O)N(CCc2ccccc2)C1 (centres undefined),-5%
Cc1ccc(NC(=O)C2CCCN(S(=O)(=O)c3cnc[nH]3)C2)cc1F (centres undefined),8%
O=C1N(Cc2ccc3c(c2)OCO3)c2ccccc2C1(O)c1c[nH]c2ccccc12 (centres undefined),0%
O=C(NCc1ccc2c(c1)OCO2)c1ccc(CS(=O)(=O)c2ccc(Br)cc2)o1,4µM*[single pt active]
CN(c1ccccc1)S(=O)(=O)c1ccc(C(=O)OCC(=O)N2CCOCC2)cc1,58%
CCCS(=O)(=O)N1CCCC(C(=O)NC(C)c2ccc3c(c2)OCCO3)C1 (centres undefined),0%
CC(O)c1ccc2c(c1)OCCOCCN(C)CCOCCO2 (centres undefined),-2%
COc1ccc2nc3sc(C(=O)N4CCN(C)CC4)cc3cc2c1,40%
C/C(N)=C(/C#N)C(=O)CSc1ccc2c(c1)OCCO2,-7%
O=C(NCc1ccc2c(c1)OCO2)C1CCCN(S(=O)(=O)c2cccnc2)C1 (centres undefined),4µM*[single pt active]
CCCC(=O)N(c1ccc2oc(=O)sc2c1)S(=O)(=O)c1ccccc1,-3%
CCCC/C=C/C(NC(=O)Oc1cccc(C(F)(F)F)c1)c1ccccc1 (centres undefined),-5%
CCn1c(=N)n(CCO)c2ccccc21,-4%
CSc1ccc(C=O)cc1,-8%
ClCc1ccccn1,1%
COCc1cc(C)nc(Nc2ccccc2C)c1C#N,6%
c1ccc(C(c2ccccc2)N2CC[C@@]3(CCCNC3)C2)cc1,13%
O=C(CCCNS(=O)(=O)c1cccc2nsnc12)NC1CCCCC1,2%
COc1c(C(=O)N2CCCC2)ccc2ccccc12,14%
CCOC(=O)C1(O)CSc2nc3sc(C(=O)O)c(C)c3c(=O)n21 (centres undefined),-4%
CCc1cc(C(=O)OC)c(NC(=O)c2cc(Br)cs2)s1,-12%

# Following part:
Molecule	AmpC nodet inh
O=C1C2CCCN2C(c2ccc(Cl)cc2)N1c1nccs1 (centres undefined)	-3%
CCN(CC)C(=O)CSc1nnc(-c2ccccc2)n1N	1%
CN(CCCC(=O)NCc1ccco1)S(=O)(=O)c1ccccc1	8%
O=C1CSC(c2nn(-c3ccccc3)cc2-c2cc3ccccc3oc2=O)N1Cc1ccco1 (centres undefined)	43%
CCOC(=O)Nc1ccc(S(=O)(=O)Nn2cnnc2)cc1	-6%
Cc1cc(=O)[nH]c(SCC2COC3(CCCCC3)O2)n1 (centres undefined)	14%
Cc1cc(C)nc(N(C#N)Cc2ccc(Br)cc2)n1	24%
Cc1ccc(C(=O)Nc2nccs2)cc1S(=O)(=O)N1CCCCC1	-16%
CCCC(CCC(=O)NC1CCCCC1)C(=O)O (centres undefined)	-7%
O=C(NCc1ccccc1)C1CC2CCCC(C1)C2=O (centres undefined)	-2%
CNC(=O)[C@H]1C[C@@H]1[C@H](NP(=O)(c1ccccc1)c1ccccc1)c1ccccc1	113%
O=C(O)CCCCCN1C(=O)CSC1=S	1%
CC(NC(=O)c1cccs1)C(c1cccs1)N1CCOCC1 (centres undefined)	3%
CCOC(=O)c1cnc(SCC(=O)Nc2ccccc2N2CCOCC2)nc1N	46%
Cc1c(CN2CCCCC2C)c(=O)n(-c2ccccc2)n1C (centres undefined)	-5%
Cc1ccc(CNC(=O)c2oc3ccc(S(=O)(=O)N4CCC5(CC4)OCCO5)cc3c2C)cc1	107%
CCOC(=O)N1CCC(N(CCCOC)C(=O)Nc2ccc(CC)cc2)CC1	93%
CCCNS(=O)(=O)c1ccc(CCC(=O)N2CCOCC2)cc1	-7%
O=C(Oc1ccc2cccc(OC(=O)N3CCOCC3)c2c1)N1CCOCC1	135%
CCOC(=O)c1sc(NC(=O)c2ccco2)nc1C	-4%
CCOC(=O)c1c(NC(=O)CN2CCOCC2)sc2c1CCCC2	138%
CCN(CC)CCCNC(=O)c1ccccc1C	-6%
COc1ccc(C)cc1NC(=O)CN(Cc1nnc(-c2ccc(Cl)cc2)o1)C1CCCC1	54%
Cc1cccc(-n2nnnc2SCC(=O)c2cc(C)n(Cc3ccco3)c2C)c1	-1%
CCc1nnc(NC(=O)OCc2ccccc2)s1	3%
Cc1ccc(C)c(C2=CSC3=NCCN23)c1	0%
CCOC(=O)c1c(-c2ccccc2)csc1NC(=O)c1nn(CC)cc1Br	0%
Cn1c(NC(=O)c2ccco2)c(-c2ccccc2)c(=O)c2ccccc21	0%
Cc1cc(C)cc(N2C(=O)CC(N3CCOCC3)C2=O)c1 (centres undefined)	-13%
CN(C)CCSc1nnc(-c2ccccc2)o1	-4%
O=S(=O)(c1ccc2c(c1)OCCO2)N1CCN(Cc2ccc3c(c2)OCO3)CC1	28%
O=C(O)C1CCCCC1C(=O)NCCCN1CCOCC1 (centres undefined)	-14%
CSc1ccccc1NC(=O)c1cnccn1	-8%
CCn1ncc(Br)c1C(=O)Nc1cc(C(=O)OC)ccc1C(=O)OC	39%
Nn1c(Nc2ccccc2)nc2sc3c(c2c1=O)CCC3	83%
Cc1cccnc1Nc1nc(-c2ccc(O)cc2O)cs1	20%
CCOc1ccc(-c2cc3nc(C4CCN(C(=O)OC(C)(C)C)CC4)c(C(=O)O)cn3n2)cc1	89%
C[C@@H](C(=O)N[C@@H](CO)Cc1ccccc1)[C@@H]1C[C@@]1(C)[C@@H](NC(=O)OCc1ccccc1)c1ccccc1	103%
N#Cc1nc(Cc2cccc3ccccc23)oc1N1CCOCC1	56%
Cc1cnc(CNc2ncncc2-c2ccc(C(=O)N(C)C)cc2)cn1	1%
O=C(CSc1nnc(-c2ccc(OC(F)F)cc2)o1)N1CCOCC1	17%
Cc1cc(C(=O)CSc2nnc(-c3ccncc3)n2-c2ccccc2)c(C)n1C	113%
COc1ccc2oc(=O)c(C(=O)N3CCCc4ccccc43)cc2c1	27%
COC(=O)C(CCCCN1C(=O)C2C3C=CC(C3)C2C1=O)N1C(=O)C2C3C=CC(C3)C2C1=O (centres undefined)	32%
CC1=CC(=O)CC(C)(C)[C@]1(O)/C=C\C(C)=C\C(=O)O	4%[5.75 µM]
CC1(C)CC(=O)N(CC(=O)N2CCN(c3ncccn3)CC2)c2ccccc2S1(=O)=O	35%
CCOC(=O)N1CCC(NC(=O)c2cccc3c2C(=O)N(Cc2cccnc2)C3)CC1	35%
O=C(O)CNC(=O)c1ccccc1O	5%[5.75 µM]
Cc1cccc(C)c1OCc1nnc(SCC(=O)NCc2ccccc2)o1	15%
COC(=O)c1cc2c(=O)n3ccccc3nc2n(C)c1=N	-10%

# Additional results.
Molecule	AmpC nodet inh
Clc1cccc(Cl)c1Cn1nnc(-c2cccs2)n1	2%
c1ccc(-n2c(SCc3ccncc3)nnc2-c2ccco2)cc1	17%
CC1CCc2sc3nc(NCc4ccco4)n4ncnc4c3c2C1 (centres undefined)	60%
COc1ccc(CN2CCN(C(=O)C3CC(=O)N(C4CCCCCC4)C3)CC2)c(OC)c1OC (centres undefined)	130%
